Screening data: PubChem BioAssay, National Center for Advancing Translational Sciences (NCATS)
TRPML1 blocker: inhibitors of human TRPML1 channel | TRPML1-inducible cells, Ca2+ dye fluorescence, FDSS; hits give low values; inhibition of EC80 agonist-evoked calcium signal | activity change, negative = inhibition, % (no concentration beside the values) | 390,000 compounds, 0.02% hits; in the data active means activity change below about -50%; inconclusive means about -30% to -50%; inactive means above about -30%;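 note: stimulus is agonist 54-4 at its EC80 concentration; % is set by controls: 0 for no effect and ±100 for the full control effect; compound concentration not given in the record; the text of the record puts the active cut at -80%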
Target sequence (Q9GZU1 whole entry, looked up): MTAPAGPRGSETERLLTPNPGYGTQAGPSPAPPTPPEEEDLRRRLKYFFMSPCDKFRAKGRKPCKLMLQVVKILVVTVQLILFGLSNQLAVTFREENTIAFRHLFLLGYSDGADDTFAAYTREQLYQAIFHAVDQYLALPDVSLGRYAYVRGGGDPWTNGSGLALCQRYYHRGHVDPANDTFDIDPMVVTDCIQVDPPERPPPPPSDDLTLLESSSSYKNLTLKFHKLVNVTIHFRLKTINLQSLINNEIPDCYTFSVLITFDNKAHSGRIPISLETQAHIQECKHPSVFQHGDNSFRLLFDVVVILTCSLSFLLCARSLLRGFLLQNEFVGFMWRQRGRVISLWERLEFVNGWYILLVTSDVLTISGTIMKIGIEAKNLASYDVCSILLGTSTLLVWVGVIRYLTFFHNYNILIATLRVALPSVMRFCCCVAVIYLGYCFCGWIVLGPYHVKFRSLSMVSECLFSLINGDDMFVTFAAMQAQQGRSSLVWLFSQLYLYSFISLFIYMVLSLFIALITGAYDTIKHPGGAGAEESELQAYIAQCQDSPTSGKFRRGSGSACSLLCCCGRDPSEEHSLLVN
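TRPML1-DL cells, Tet-induced overnight (~16 h, 37 °C) at 1,500 cells/well, were loaded with Ca8 no-wash dye plus quencher for 45-90 min at room temperature. Compounds were pinned during FDSS kinetic reading; agonist 54-4 at EC80 (4 uM final) then added.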
TRPML1 ag: human mucolipin-1 channel agonism; Q9GZU1; TRPML1-expressing cells, Ca2+ dye fluorescence, FDSS; host cell line not named in the record; reference of the full effect not given here; activation, % (concentration not given with the values); 410,000 compounds, 0.12% hits; in the data active = activation above about 50%; inconclusive = about 30% to 50%; inactive = below about 30%; note: 0% is about no effect; the text of the record puts the active cut at 80%
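In this qHTS format, compounds were pin-transferred onto Ca8-dye-loaded TRPML1-DL cells induced with Tet overnight, and intracellular Ca2+ fluorescence was recorded kinetically for 110 s after a 10 s baseline. A subsequent 4uM final 54-4 (EC80) addition followed by a second 110 s read served as the antagonist phase.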
TRPV1 potentiator: potentiators of human vanilloid receptor 1 (TRPV1); Q8NER1; TRPV1-expressing cells, Fluo-8 calcium influx, capsaicin EC20 potentiation; host cell line not named in the record; control for the full effect not named in the record; potentiation, % at 8.33 µM; 320,000 compounds, 0.02% hits; AID 540277; active means potentiation above 80%; inconclusive means 30% to 80%; inactive means below 30%; note: 0% is about no effect
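Fluo-8 calcium influx in TRPV1-expressing cells, kinetic read (ex 480/em 520 nm). Compound added and read 3 min for agonist activity, followed by capsaicin at EC20 final and 2 min further read for enhancement.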
PINK1 modulator: modulators of PINK1 expression; Potency, µM (doses to about 76.6 µM), without a hit: at the top dose activation (PINK1 increase), most hits filed as activators; 410,000 compounds, 0.2% hits; PINK1 immunofluorescence, high-content cytometry, 24 h; active = well fitted activation curve with a large enough effect; inconclusive = small, poorly fitted or top-dose-only effect; inactive = flat fitted curve, though single readings scatter; cell line not stated here;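 note: potency is the fitted concentration of half-maximal effect; % of control where 0% means no effect; nearly all actives have a fitted effect of over 65% in size; a mitochondrial uncoupler was the plate control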
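Compound titrations (5 concentrations, 24 h) on a stable cell line; DMSO and CCCP controls. Endpoint: fixed-cell PINK1 immunofluorescence with mitochondrial, cell and nuclear markers, scanned by microplate cytometer.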
Menin MLL FP FL: displaces fluorescein MLL peptide from human menin | Fluorescence polarization, fluorescein-MLL peptide displacement from menin | FP activity change, % at 61.4 µM | 290,000 tested, under 10 active; inconclusive = falling polarisation curve, or a change in total fluorescence; inactive = total fluorescence flat and polarisation flat or rising; no compound was filed as active; the % refers to the polarisation; negative = inhibition;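 note: % of control where 0% means no effect; inhibitors lower the polarisation; unlabelled MLL peptide was the positive control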
Sfp PPTase inh: blocks B. subtilis Sfp PPTase activity. AID 1490. 310,000 compounds, 3.5% hits. Biochemical Sfp PPTase activity, qHTS. Potency, µM, for inactives: max response, negative = inhibition, most hits filed as inhibitors. Q9F4F7; active = well fitted inhibition curve with a large enough effect; inconclusive = small, poorly fitted or top-dose-only effect, or another doubt; inactive = no such curve, though single readings can be large or run the other way;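 note: the enzyme is Sfp with the accession as filed and its product quenches rhodamine fluorescence; potency is the fitted concentration of half-maximal effect; 0% = enzyme reaction without inhibitor and -100% = no enzyme wells; top concentration of the series not given in the record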
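Buffer: 50 mM Hepes-Na pH 7.6, 10 mM MgCl2, 0.01% Nonidet P-40, 0.01% BSA. Enzyme 15 nM, pre-exposed to compound 15 min; substrates then added and fluorescence change tracked over 30 min.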
ClpP mod: qHTS Assay for Activators of ClpP. ATP-dependent Clp protease proteolytic subunit (Bacillus subtilis (strain 168)), P80244. 340,000 compounds, 1.9% hits. purified B. subtilis ClpP, FRET peptide cleavage, 20 min. Potency, µM (doses to about 57.5 µM), inactives show at the highest dose activity change, negative = active; active = well fitted falling curve with a large enough effect; inconclusive = small, poorly fitted or top-dose-only effect; inactive = no such curve, though single readings can be large or run the other way; note: potency is the fitted concentration of half-maximal effect; the source files actives as falling curves though it sought activators and does not explain the sign; nearly all actives have a fitted effect of over 65% in size; many hits overshoot -100%
Target sequence (P80244 whole entry, looked up): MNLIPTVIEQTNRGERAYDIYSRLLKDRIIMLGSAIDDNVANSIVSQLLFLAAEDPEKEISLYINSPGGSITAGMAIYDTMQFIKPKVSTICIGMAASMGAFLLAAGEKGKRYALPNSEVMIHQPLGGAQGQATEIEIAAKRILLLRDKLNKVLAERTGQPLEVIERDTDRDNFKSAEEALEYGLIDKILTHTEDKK
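Purified B. subtilis ClpP, 10 microg/mL final in Tris/HCl pH8 with KCl, BSA, glycerol and Tween-20, cleaved an Abz/nitrotyrosine-quenched decapeptide. Fluorescence (ex 320, em 430) was read at 0 and 20 min at room temperature. Delta was normalized to 5.8 microM ADEP and DMSO/no-enzyme controls.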
Active calls of the source: *; ? = inconclusive; / = no result given; [ ] = another dose, or the depositor's remark. An unsorted share of the library (roughly 4.4% active in at least one column).

SMILES	TRPML1 blocker	TRPML1 ag	TRPV1 potentiator	PINK1 modulator	Menin MLL FP FL	Sfp PPTase inh	ClpP mod
CC(=O)OCC1OC(n2ncc(=O)n(Cc3ccccc3)c2=O)C(OC(C)=O)C1OC(C)=O (centres undefined)	-14	-0.1	0	1.0%	2.7	14%	/
CCn1c(C)c(C)c2cc(C(=O)NCCCN3CCOCC3)ccc21	2	-0.5	10	-0.7%	/	-3%	-11%
COc1ccc(OCC(=O)N2c3ccccc3CC2C)c([N+](=O)[O-])c1 (centres undefined)	19	-0.7	/	3.1%	/	/	/
CSc1ccc(/C=N/Nc2ccc(Cl)c(C(=O)O)c2)cc1	7	-0.5	6	0.8%	8.1	3%	/
COc1cc(C(=O)N(Cc2cccnc2)Cc2cc3cc4c(cc3[nH]c2=O)OCCO4)cc(OC)c1OC	-19	0.2	18	-3.3%[38.3 µM]	-0.7	-15%	28µM*
Cc1cc(Nc2ccccc2)n(CCC#N)n1	-8	-0.8	4	1.7%	0.1	6%	-0.2%
O=C1N=c2ccccc2=C1c1c(O)[nH]c2c(C(F)(F)F)cccc12	0	-0.3	-5	-0.5%	1.0	4%	14%
CCCn1c(N)c(N(CCOC)C(=O)c2ccc(S(=O)(=O)N3CCOCC3)cc2)c(=O)[nH]c1=O	-1	1.4	/	2.9%	/	/	0.8%
COc1cc(OC)c(C(=O)Nc2cccc(C(C)=O)c2)cc1OC	8	0.0	9	0.1%	-2.3	-8%	16µM*
CS(=O)(=O)N(CC(=O)N1CCCC1)c1ccccc1F	5	0.1	-6	2.7%	0.0	15%	/
CC(C)(C)OC(=O)[C@H](CCCCN)NC(=O)c1nc[nH]c1C(=O)N[C@@H](CCCCN)C(=O)OC(C)(C)C	-28	-0.4	/	1.9%	/	/	1.2%
Cc1ccc(C2C=C(c3ccccc3OC(F)F)Nc3ncnn32)cc1 (centres undefined)	-9	2.4	-14	-2.0%	2.9	-13%	22µM*
Cc1ccc(-c2c(CN3CCN(c4cc(Cl)ccc4C)CC3)csc2C)cc1	8	-0.8	/	0.4%	/	/	-3.7%
Cc1nnc(SCC(=O)N2c3ccccc3Sc3ccccc32)n1N	8	0.4	1	3.6%[38.3 µM]	-1.8	8%	0.4%
Cc1cccc(-n2ncc(C(=O)N3CCN(C(=O)c4ccco4)CC3)c2C2CCN(C(=O)OC(C)(C)C)CC2)c1	-7	-0.3	/	-0.2%	/	/	1.8%
O=C(Nc1cc(F)ccc1F)N1CCC(CN2CCOCC2)CC1	31	1.0	/	1.1%	/	/	0.5%
O=C(NC1CCCCC1)Sc1ccc(Cl)cc1	7	-0.5	2	-0.2%	3.9	28µM*	1.5%
COC(=O)c1ccc(NC(=O)CC2C(=O)N(c3cccc(OC)c3)C(=O)N2C(C)C)cc1 (centres undefined)	-10	0.5	/	2.9%	/	/	1.8%
N#CC(c1ccc(O)cc1)N1CCCCC1 (centres undefined)	22	-0.4	-3	-2.4%[38.3 µM]	-1.1	0%	-1.6%
CCOCCCNC(=O)Cc1ccc(Br)cc1	19	0.3	-4	1.3%	4.9	15%	-9.7%
O=C(COC(=O)/C=C/c1ccccc1Cl)NC(=O)NCc1ccccc1	-13	1.2	6	3.1%	/	/	-9.1%
CC(=O)c1cccc(NS(=O)(=O)N(C)C)c1	-12	-0.4	9	-0.1%	-2.2	-9%	-1.4%
COc1cc(OC)c(OC)cc1CN1CCN(Cc2cccc(F)c2)CC1	-28	0.8	-6	3.2%	-1.8	10%	0.2%
CCOC(=O)c1cccc(NC(=O)c2cn(-c3cccc(OC)c3)c(=O)c3ccccc23)c1	14	0.1	/	-0.4%	/	/	19%
Cc1cccc(-c2nc3ccccc3c(=O)n2NC(=S)N(C)C)c1	-11	-0.1	0	2.3%	2.1	32µM*	-1.5%
COc1ccccc1NC(=S)NC1CC2CCC1C2 (centres undefined)	4	0.3	-4	-0.5%	4.5	26%	-1.8%
COc1cc(NC(=O)c2cc3c(CO)cnc(C)c3oc2=Nc2cccc(C(N)=O)c2)cc(OC)c1	-6	1.5	-3	12%	0.0	17%	1.5%
CCN(CC)S(=O)(=O)c1ccc(S(=O)(=O)N2CCCC2)cc1	-5	0.6	4	1.4%	6.7	-9%	/
CC(=O)c1cccc(NC(=O)c2ccc(Br)o2)c1	-10	1.0	-7	5.2%[38.3 µM]	-0.4	-4%	0.1%
CC(Sc1nnc2ccccn12)C(=O)Nc1ncc(Cl)cc1Cl (centres undefined)	-5	0.0	8	0.1%	2.0	11%	-0.5%
Cc1ccc(NC(=O)CSc2nnc(COc3ccc(Cl)cc3)o2)cc1	?	-0.2	/	-0.6%	/	/	0.9%
O=S(=O)(c1ccccc1)c1nc(-c2cccs2)oc1NCC1CCCO1 (centres undefined)	8	1.1	-12	0.9%	1.4	56µM*	25µM*
Cc1c(C)n(Cc2ccccc2)c2ncnc(NCCCO)c12	23	-0.1	19	3.9%	0.5	8%	/
COc1cccc(/C=N/NC(=O)C(C)n2nnc3ccccc32)c1 (centres undefined)	41	-0.1	4	1.4%	2.6	-1%	-2.1%
CCC/S(C)=N/S(=O)(=O)c1ccc(C)cc1 (centres undefined)	-3	-0.1	-2	0.3%	7.1	0%	2.5%
COc1cccc2c(C)cc(N3CCCCCC3)nc12	-14	1.2	-12	3.5%	4.5	29%	4.6%
Cc1cnc(C)c(N2CCN(Cc3nc(-c4cccc(F)c4F)oc3C)CC2)n1	0	1.4	-11	-0.8%	-20	0%	-11%
CCOc1ccc(N(CC(=O)NCCSCc2ccc(C)cc2)S(C)(=O)=O)cc1	-9	2.0	9	-1.6%	6.7	-9%	-1.0%
COc1cc(OC)c2cc[nH]c2c1	0	0.6	?	2.1%	-2.3	12%	-1.9%
O=C(COc1ccccc1)N1CCN(c2ccc([N+](=O)[O-])c(N3CCCCC3)c2)CC1	12	2.8	-9	-1.0%[38.3 µM]	-0.7	12%	0.3%
O=C(NCc1ccccc1CN1CCCC1)C1CCN(S(=O)(=O)c2ccc(F)c(F)c2)CC1	-8	0.2	4	-0.5%	/	/	-1.8%
CCN(CC)S(=O)(=O)c1ccc2nc(NC(=O)c3cncc(Br)c3)sc2c1	10	0.0	/	-0.9%	/	/	-0.4%
O=C(O)CN1C(=O)NC2(CCc3ccccc32)C1=O (centres undefined)	-12	0.0	-8	0.5%	-8.9	1%	/
CCOC(=O)c1[nH]c(C)c(C(=O)N2CCN(c3ccc(F)cc3)CC2)c1C	-8	-0.4	4	0.3%[38.3 µM]	-0.3	2%	0.4%
CCc1ccc(OCC(=O)Nc2nnc(-c3ccco3)s2)cc1	-7	-0.5	1	-1.3%	0.9	-3%	-18%
CN(C(=O)n1cnc2ccccc21)c1ccccc1	-12	-0.3	-1	0.4%	-0.5	17%	0.8%
O=C(O)COc1ccccc1C=NNc1ccc([N+](=O)[O-])cc1S(=O)(=O)Nc1ccc(Cl)cc1	-8	-0.7	/	7.1%	/	/	/
Cc1c(-c2ccccc2)nc2ccccc2c1C(=O)O	-13	0.6	-7	5.9%[38.3 µM]	1.8	16%	-1.8%

Fetched one by one from above:
SMILES	TRPML1 blocker	TRPML1 ag	TRPV1 potentiator	PINK1 modulator	Menin MLL FP FL	Sfp PPTase inh	ClpP mod
Cc1c(-c2ccccc2)nc2ccccc2c1C(=O)O	-13	0.6	-7	5.9%[38.3 µM]	1.8	16%	-1.8%
CCOc1ccc(N(CC(=O)NCCSCc2ccc(C)cc2)S(C)(=O)=O)cc1	-9	2.0	9	-1.6%	6.7	-9%	-1.0%
CCc1ccc(OCC(=O)Nc2nnc(-c3ccco3)s2)cc1	-7	-0.5	1	-1.3%	0.9	-3%	-18%
CCN(CC)S(=O)(=O)c1ccc2nc(NC(=O)c3cncc(Br)c3)sc2c1	10	0.0	/	-0.9%	/	/	-0.4%

More results follow.
SMILES	TRPML1 blocker	TRPML1 ag	TRPV1 potentiator	PINK1 modulator	Menin MLL FP FL	Sfp PPTase inh	ClpP mod
CCOC(=O)C(CC)Sc1nc2c(c(=O)[nH]c(=O)n2C)n1C/C=C(/C)Cl (centres undefined)	10	0.7	-16	7.6%	-2.6	14µM*	3.6%
Cn1c(N)c(C(=O)COC(=O)CCCc2nc3ccccc3s2)c(=O)n(C)c1=O	0	-0.2	8	0.8%	1.1	14%	/
O=C(COC(=O)CCSc1ccccc1)Nc1ccccc1	1	0.5	/	1.3%	/	/	0.5%
CSc1ccc(CCNC(=O)c2ccc(-c3nc(COc4ccccc4)c(C)o3)cc2)cc1	-16	-0.7	/	1.1%	/	/	-1.9%
CC1CN(C(=O)c2cc(-c3ccncc3)nc3ccccc23)CC(C)O1 (centres undefined)	4	0.8	-7	2.5%	/	/	1.3%
CN(C)c1ccc(-c2nccc(NCCN3CCOCC3)n2)cc1	/	/	/	4.6%	0.9	-7%	/
Cn1c(SCCSc2nnc(-c3ccccc3)n2C)nnc1-c1ccccc1	/	/	12	/	-2.4	3%	/
CCOC(=O)c1[nH]c(C)c(C(=O)N2CCN(c3ccccc3)CC2)c1C	11	1.6	-7	0.5%[38.3 µM]	3.5	6%	-1.7%
CN(C)CCn1c2c(c(SCC(=O)Nc3ccccc3C(F)(F)F)nc1=O)CCCC2	4	0.0	1	-1.7%	/	/	-7.0%
CN1CC[C@@H]2C(=O)N3CCc4ccc(-c5ccc6c(c5)OCO6)cc4[C@@H]3C[C@@H]21	-10	-0.4	/	0.6%	/	/	-16%
CCN=C1S/C(=C\c2ccc(OCC)c(OC)c2)C(=O)N1CC	7	1.6	-1	8.7%	1.3	5%	/
CCCCC(C(=O)OCC)C(N)Cc1ccc(F)cc1 (centres undefined)	-15	0.8	-13	3.1%	-0.9	-12%	-1.2%
O=S(=O)(Nc1ccc(Cl)nn1)c1ccccc1	3	0.6	8	4.3%	0.8	24%	-0.6%
Cn1c(SCc2c(Cl)cccc2Cl)nnc1-c1ccc2nonc2c1	4	0.0	-4	-0.1%	0.5	15%	/
COC(=O)c1ccc(C(C(=O)NC2CCCCC2)N(Cc2ccccc2)C(=O)Cc2cccs2)cc1 (centres undefined)	10	2.5	-5	9.3%	11	16%	-14%
COc1cc(NC(=S)NNC(=O)C(C)(C)O)cc(OC)c1	-3	0.3	6	0.2%	1.5	14%	1.8%
